VDR inhibitor – Inhibitors of the vitamin D receptor (VDR): qHTS; AID 504847, 2011; Vitamin D3 receptor (Homo sapiens), P11473; VDR-SRC2-3 peptide fluorescence polarization, 2 h; 400,000 tested, 0.93% active; Potency, µM, for inactives: max response, negative = inhibition, usual class: inhibitors; active = well fitted inhibition curve with a large enough effect; inconclusive = small, poorly fitted or top-dose-only effect, or another doubt; inactive = no such curve, though single readings can be large or run the other way; note: series mostly up to about 120 µM
Target sequence (P11473 whole entry, looked up): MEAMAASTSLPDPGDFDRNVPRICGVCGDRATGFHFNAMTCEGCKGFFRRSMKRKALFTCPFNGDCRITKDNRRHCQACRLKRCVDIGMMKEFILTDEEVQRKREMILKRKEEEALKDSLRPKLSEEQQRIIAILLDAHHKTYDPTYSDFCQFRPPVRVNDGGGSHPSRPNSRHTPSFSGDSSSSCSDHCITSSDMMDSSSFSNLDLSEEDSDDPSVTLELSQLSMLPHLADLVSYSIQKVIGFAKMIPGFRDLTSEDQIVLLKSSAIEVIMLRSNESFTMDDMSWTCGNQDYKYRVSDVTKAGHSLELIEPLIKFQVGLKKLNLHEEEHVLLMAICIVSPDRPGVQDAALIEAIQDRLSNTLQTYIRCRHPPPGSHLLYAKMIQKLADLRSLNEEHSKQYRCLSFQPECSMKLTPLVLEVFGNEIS
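Signal is fluorescence polarization, reporting how far test compounds block the interaction of VDR with the SRC2-3 coregulator peptide after a 2 h room-temperature incubation.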
An asterisk follows results filed as active; ? = inconclusive; & = joins results of further samples. % is set by controls: 0 for no effect and ±100 for the full control effect; potency is the fitted concentration of half-maximal effect. A portion of the library, so the mix of outcomes need not match the whole.

SMILES	VDR inhibitor
COCc1ccc(CN2CCCC(C(=O)Nc3ccccc3-c3ccc(OC)cc3)C2)o1 (stereo unspecified)	5.8%
NNC(=O)CN1C(c2ccc(Cl)cc2)=Nc2ccc(Br)cc2C1c1ccccc1 (stereo unspecified)	-14.7%
O=C(Nc1ncccn1)c1cccc(Cl)c1	-15.2%
Cc1ccc(NCc2nnc(SCC(=O)NCCc3ccccc3)n2C)cc1	17.4%
CCn1cc(C(=O)OCC(=O)Nc2cccc(S(=O)(=O)N3CCOCC3)c2)c(=O)c2ccc(C)nc21	-11.4%
CC(C)c1ccc(S(=O)(=O)N2CCN(C(=O)CN3C(=O)NC(C)(c4ccccc4)C3=O)CC2)cc1 (stereo unspecified)	-5.7%
C[C@H](CCC(=O)O)[C@H]1CC[C@H]2[C@@H]3CC[C@@H]4C[C@H](O)CC[C@]4(C)[C@H]3C[C@H](O)[C@]12C	11.6%&9.4%&-7.0%&-19.4%
CCn1c(SCC(=O)O)nnc1-c1ccccc1OC	-10.6%
COc1ccc(-c2nc(CSCC(=O)N3CCN(c4ccc(F)cc4)CC3)c(C)o2)cc1	2.7%
CC1(OC(=O)CCc2ccccc2)C(=O)C=C2C=C(c3ccc(C#N)cc3)N(c3ccccc3)C=C2C1=O (stereo unspecified)	-13.9%
O=C(Cn1nnc(-c2cccs2)n1)OC1CCCCC1	-10.0%
CCN(CC)S(=O)(=O)c1ccc2[nH]c(=O)cc(C(=O)NCC(c3ccco3)N3CCCC3)c2c1 (stereo unspecified)	-15.6%
O=C1c2ccc(-c3ccc(Cl)c(C(F)(F)F)c3)cc2S(=O)(=O)c2cccc(C(=O)N3CCN(c4ccc(Cl)cn4)CC3)c21	-1.2%
O=C1CC(Cc2ccccc2)C(=O)N1CCc1ccc2c(c1)OCO2 (stereo unspecified)	-6.1%
CCn1c2ccccc2c2cc(NC(=O)c3ccccc3-c3ccccc3C(=O)O)ccc21	-2.0%
COc1ccccc1CNc1nc(-c2cccnc2)nc2ccccc12	-10.6%
Cc1cc(N2CCN(C(=O)c3ccco3)CC2)n2nc(C)nc2n1	0.8%
O=C(CSc1nccn(-c2ccc3c(c2)OCCO3)c1=O)Nc1ccccc1	?
COc1ccc(Cl)cc1Nc1nc2ccc(C(=O)c3ccccc3)cc2n2cnnc12	7.3%
COc1ccc(OC)c(NC(=O)C2CCN(S(=O)(=O)c3ccc(C)cc3)CC2)c1	29.3%
CC1CN(C(=O)Nc2ccc(C(=O)NCc3ccccc3F)cc2)c2ccccc2S1 (stereo unspecified)	16.4%
CCCCCC(=O)N1CCN(S(=O)(=O)c2ccc3c(c2)OCCCO3)CC1	-8.2%
O=C(CSc1nc2c(cnn2-c2ccccc2)c(=O)[nH]1)c1ccc(Cl)cc1	-4.0%
O=C(NCCN1CCNC1=O)C1CCC(=O)N(CCc2ccccc2)C1 (stereo unspecified)	-15.5%
O=C1Nc2ccccc2C(=O)N2C[C@@H](O)C[C@H]12	1.7%

Next compounds
SMILES	VDR inhibitor
CN(CC(=O)Nc1ccc(Cl)c(C(F)(F)F)c1)C(=O)c1cccc(N2C(=O)CCC2=O)c1	-10.4%
CCC(=O)c1ccc(OCc2cn(CC(=O)c3ccc(O)cc3)nn2)cc1	-11.8%
Cc1occc1C(=O)Nc1cnn(CCCC(=O)O)c1	16.8%
CCCn1c(N)c(N(CCOC)C(=O)c2c(CC)noc2C)c(=O)[nH]c1=O	15.6%
COc1ccc(F)cc1NC(=O)C1CCN(c2nc(-c3ccc(OC)c(OC)c3)no2)CC1	-0.6%
Cc1cc2oc3cc(NCCC4CCCN4C)ccc3c(=O)c2cc1C (stereo unspecified)	-10.5%
CCC(Oc1ccccc1)C(=O)OCC(=O)Nc1sccc1C(N)=O (stereo unspecified)	3.4%
C=CCNC(=O)C1COc2ccccc2O1 (stereo unspecified)	9.1%
COc1ccc(OC)c(C2c3c(oc4ccc(C)cc4c3=O)C(=O)N2CCCN(C)C)c1 (stereo unspecified)	-1.2%
O=C(COC(=O)C1CC1)NCCNC(=O)COC(=O)C1CC1	2.5%
O=C(N/N=C/c1cccs1)c1ccc(NC(=O)c2ccccc2Cl)cc1	-1.9%
CCOC(=O)c1c(NC(=O)CSc2nc3ccc(C)cc3[nH]2)sc2c1CC(C)(C)NC2(C)C	-18.8%
O=C(CCc1nnc(CCCCc2ccccc2)o1)NC(c1cccnc1)C(F)(F)F (stereo unspecified)	-2.9%
C#CCOCCOCCOCCNc1nc(N2CCN(C(=O)C([C@@H](C)O)n3cc([C@@H](N)CCCCN)nn3)CC2)nc(N2CCN(C(=O)[C@H](CC(N)=O)n3cc([C@@H](N)C(C)C)nn3)CC2)n1 (stereo partly specified)	-0.2%
COc1cc(OC)c(OC)cc1C#N	-6.7%
Cc1ccccc1CC1(CO)CCCN(C(=O)c2ccc3ncccc3c2)C1 (stereo unspecified)	39.8µM*
CCOc1ccccc1NC(=O)CN1c2cccc3cccc(c23)S1(=O)=O	-2.5%
COc1ccc(NC(=O)c2oc3ccccc3c2NC(=O)C2CC2)c(OC)c1	-12.9%
CCS(=O)(=O)N1CC(=O)N(c2ccc(Cl)cc2C)C(C)(C(=O)NC2CCCCCC2)C1 (stereo unspecified)	4.8%
COc1ccc(C2=NS(=O)(=O)N(C)C(C(=O)Nc3ccc(C)cc3)=C2)cc1	-2.4%
Cc1cc(=O)n2nc(N3CCCC3C(=O)Nc3ccc(C(C)C)cc3)sc2n1 (stereo unspecified)	17.7%
CC(=O)Nc1ccc(SCCN2CCN(CCc3ccccc3)CCC2=O)cc1	17.8µM*
O=C(CN1C(=O)c2ccccc2S1(=O)=O)Nc1ccc(S(=O)(=O)N2CCCCC2)cc1	-16.2%
O=C(Nc1ccncc1)c1ccc(Cl)c(S(=O)(=O)N2CCc3ccccc32)c1	3.2%
O=C(NC1CCCCC1)c1cccnc1Sc1ccccc1	-0.2%

Next part.
SMILES	VDR inhibitor
Cc1ccc(-c2noc(CCC(=O)Nc3ccc4c(c3)OCO4)n2)cc1	5.2%
COc1ccccc1N(CC(=O)NCC1CCCO1)C(=O)CNS(=O)(=O)c1ccc(Cl)cc1 (stereo unspecified)	-4.6%
COc1ccc(-n2nc(C(=O)NCC(=O)N3CCCCCC3)c3ccccc3c2=O)cc1OC	-8.0%
CCOc1cc(C(=O)OC(C)C(=O)Nc2ccc(S(N)(=O)=O)cc2)ccc1OCC(=O)N1CCOCC1 (stereo unspecified)	-12.3%
CCOc1cc(-c2ccc(N)c(OCC)c2)ccc1N	-29.7%
COc1ccc(Cn2nnc3c(=O)[nH]c(C4CCCN(C(=O)c5ccc(C)cc5)C4)nc32)cc1 (stereo unspecified)	0.0%
O=C(NNC(=O)c1ccc(SCC2CCCO2)c([N+](=O)[O-])c1)c1ccc(F)cc1 (stereo unspecified)	1.3%
CN(C)c1ccc(/C=C/c2ccc3ccccc3[n+]2C)cc1	19.7%
COc1ccc(-c2cc(C(=O)Nc3cc(C)nn3-c3ccccc3)no2)cc1OC	-17.9%&-15.5%
Cc1cc(Cl)ccc1NC(=O)CCS(=O)(=O)c1ccc2c(c1)CC(C)N2C(=O)C1CC1 (stereo unspecified)	5.8%
COc1ccc(S(=O)(=O)NC(C)C(=O)NCc2ccc3c(c2)OCO3)cc1OC (stereo unspecified)	-6.5%
C=CCC1=C/C(=C\c2c(N)n3nc(CC(=O)N4CCOCC4)sc3nc2=O)C=C(OC)C1=O	13.3%
COc1ccc2c(c1)CCc1c(C(=O)Nc3cnn(Cc4ccc(Cl)cc4Cl)c3)noc1-2	4.3%
Cc1ccccc1OCCn1cc(C(=O)C(=O)N2CCOCC2)c2ccccc21	-0.6%
COc1cccc(C(=O)Nc2c(C(N)=O)oc3ccccc23)c1	-15.3%
CCc1ccccc1NC(=O)Cn1nc(C)n2cccc2c1=O	12.3%
NC(=O)CN1C(=O)C(O)(CC(=O)/C=C\C=C\c2ccccc2)c2ccccc21 (stereo unspecified)	-17.5%
CCOC(=O)c1cnc(-c2ccc(C(F)(F)F)cn2)[nH]c1=O	-8.5%
CC(=O)c1ccccc1OC(=O)c1ccc(-c2ccccc2)cc1	-10.3%
COc1cc2c(cc1OC)-c1cc(Nc3ccccc3)nc(=O)n1CC2	-15.6%
COc1cc(NC(=O)C2CC(c3cccc(Br)c3)=NO2)cc(OC)c1OC (stereo unspecified)	2.0%
O=C(Nc1cccc(Cl)c1)c1csnn1	-5.1%
COc1ccc(S(=O)(=O)N2CCc3ccccc32)cc1C(=O)NCc1ccco1	10.5%
CC(=O)Nc1ccc(Sc2ncccc2C(=O)Nc2ccc(F)cc2)cn1	-2.9%
CCOC(CCNC(=O)CCC(=O)Nc1ccc2nc(N3CCN(C)CC3)cc(C)c2c1)OCC	-8.8%

4 entries picked at random from the list so far, as already listed:
SMILES	VDR inhibitor
CCOC(=O)c1cnc(-c2ccc(C(F)(F)F)cn2)[nH]c1=O	-8.5%
C=CCC1=C/C(=C\c2c(N)n3nc(CC(=O)N4CCOCC4)sc3nc2=O)C=C(OC)C1=O	13.3%
CN(C)c1ccc(/C=C/c2ccc3ccccc3[n+]2C)cc1	19.7%
O=C(NNC(=O)c1ccc(SCC2CCCO2)c([N+](=O)[O-])c1)c1ccc(F)cc1 (stereo unspecified)	1.3%

Remaining list, next part
SMILES	VDR inhibitor
CS(=O)c1ccccc1COC(=O)Nc1ccc(Cl)cc1 (stereo unspecified)	5.2%
CCOc1ccccc1NC(=O)Cn1cnc2sc(C)c(S(=O)(=O)N3CCC(C)CC3)c2c1=O	5.0%
O=C(Nc1ccc(Oc2ccccc2)nc1)C1CCN(Cc2ccccc2)CC1	-20.3%
Cn1c(CNC(=O)Nc2cccc(Cl)c2)nnc1SCc1ccccc1	-3.0%
CCC(=O)Nc1cccc(NC(=O)c2cccnc2)c1	-1.1%
COc1ccc(-c2cc(C(=O)Nc3c(C)nn(Cc4ccccc4C)c3C)no2)cc1	-2.5%
CNC(=S)NC1(C)CCS(=O)(=O)C1 (stereo unspecified)	-5.0%
Cc1ccc(CNc2ncnc3onc(-c4ccc(F)cc4)c23)cc1	19.6%
CCc1nnc(NC(=O)CN2CCN(C3CCCCC3)CC2)s1	10.2%
CCOC(=O)C(=O)Nc1ccc(OC)c(Cl)c1	-6.0%
COC(=O)C(O)(NC(=O)c1ccncc1)C(F)(F)F (stereo unspecified)	-17.1%
CCCCc1nc(NCC2CCCO2)c(C#N)c2c1COC(C)(C)C2 (stereo unspecified)	-2.5%
COc1ncc2nc(-c3ccccc3)c(=O)n(C)c2n1	11.2%
C[C@H](CO)N1C[C@H](C)[C@@H](CN(C)S(=O)(=O)c2ccc(F)cc2)Oc2c(NC(=O)Cc3ccccc3)cccc2C1=O	-4.2%
CCC(=O)N1CCc2cc(Br)cc(S(=O)(=O)CCC(=O)Nc3ccc(CC)cc3)c21	-4.8%
Cc1cccc(C)c1NC(=O)c1cc(S(=O)(=O)N2CCOCC2)cn1C	-19.1%
CCOC(=O)N1CCN(C(=O)c2cnn3ccccc23)CC1	9.7%
COC(=O)Cn1c(=NC(=O)C(C)(C)C)sc2c(C)cc(C)cc21	10.6%
CCc1ccc2oc(=O)cc(CN3CCC(C)CC3)c2c1	-21.9%
C[C@H](NC(=O)Cc1cccc2ccccc12)C(=O)NCc1ccccc1	17.4%
CCN(CC)CCn1c(=S)[nH]c2cc(C(=O)NCc3ccccc3Cl)ccc2c1=O	2.7%
O=C(Nc1ccc(F)cc1)/C(Cl)=C/c1ccccc1	-19.5%
CN(C)/C=N/c1nc2nccc(-c3ccccc3)n2n1	-13.0%
CCOC(=O)c1ccc(N=Cc2nc(-c3ccccc3)oc2OC(C)=O)cc1	17.8µM*
COc1ccc(OC)c(N(CC(=O)Nc2ccc3c(c2)OCO3)S(=O)(=O)c2ccccc2)c1	-0.9%

Among those listed so far, four contain a COOH group.
SMILES	VDR inhibitor
C[C@H](CCC(=O)O)[C@H]1CC[C@H]2[C@@H]3CC[C@@H]4C[C@H](O)CC[C@]4(C)[C@H]3C[C@H](O)[C@]12C	11.6%&9.4%&-7.0%&-19.4%
CCn1c(SCC(=O)O)nnc1-c1ccccc1OC	-10.6%
CCn1c2ccccc2c2cc(NC(=O)c3ccccc3-c3ccccc3C(=O)O)ccc21	-2.0%
Cc1occc1C(=O)Nc1cnn(CCCC(=O)O)c1	16.8%

(further entries)
SMILES	VDR inhibitor
CCOC(=O)c1c(C2COc3ccccc3O2)csc1N (stereo unspecified)	-10.8%
O=C(Nc1ccccc1)Nc1ccncc1	-1.8%
Cc1ccc(NC(=O)C(=O)NCc2ccncc2)cc1	-2.5%
CCc1nn(CC(=O)N(CC)Cc2ccccc2)c(=O)c2cc3occc3n12	-2.9%
CCOCC(=O)NC1CCc2cc(OC)c(OC)c(OC)c2-c2ccc(SC)c(=O)cc21 (stereo unspecified)	-10.3%
CC12CCC(C[N+](C)(CCC[N+](C)(C)C)C1)C2(C)C (stereo unspecified)	4.0%
O=C(c1ccc(CSc2nc3ccncc3[nH]2)cc1)N1CCN(c2cccc(Cl)c2)CC1	1.6%
CC(C)C[C@H](NC(=O)N1CC(=O)Nc2ccccc21)C(=O)N[C@@H](C(=O)O)c1ccccc1	3.6%
Cc1ccc(CN(CC(=O)NC2CCCC2)C(=O)c2csnn2)cc1	-10.3%
CCOC(=O)c1[nH]c2ccccc2c1NC(=O)c1c(F)cccc1F	-11.7%
CC(=O)c1ccc(N2CCN(C(=O)c3ccco3)C(C)C2)c(F)c1 (stereo unspecified)	-6.0%
CC(C)(C)c1nc(CN2CCOCC2)ccc1O	13.1%
Cc1ccccc1-c1nnc(NC(=O)CSc2nc3ccccc3s2)s1	-13.4%
Cc1ccccc1N(CC(=O)N/N=C/c1ccc(N(C)C)cc1)C(=O)c1ccccc1	-13.5%
N#CCCn1cc(C(=O)Nc2ccc([N+](=O)[O-])cc2)c(-c2cc3ccccc3o2)n1	0.0%
CCOCCOc1nc(C)cc(C)c1S(=O)(=O)c1ccccc1C	-0.3%
COC(=O)Cc1nnc(NC(=O)c2ccccc2)s1	14.0%
C=CCOc1ccc(CNCCc2ccc(S(N)(=O)=O)cc2)cc1	3.6%
